Compound activity from PubChem.
Mtb H37Rv – Confirmatory growth inhibition assay against Mycobacterium tuberculosis H37Rv, potency (AID 1949) | inhibition, % at 10 µg/mL; hits with a dose series show IC50 in µg/mL | most inactive calls were filed without a number and no value below 0 was filed | 100,000 tested, 1.6% active;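 active means confirmed in a dose series; inconclusive means about 50% or more but not retested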;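 further: bacteria grown 7 days with compound before Alamar blue readout; 0% = untreated bacteria and 100% = reference antibiotic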
The depositor's hits bear a star; i = inactive; ? = inconclusive. An excerpt; the hit share may differ from the screen's.

A first look:
SMILES | Mtb H37Rv
COc1ccc(NC(=O)C(C(C)C)N2C(=O)c3ccccc3C2=O)cc1Cl (stereo not drawn) | i
c1csc(-c2csc3ncnc(NC4CCCC4)c23)c1 | i
CCn1c(COc2ccccc2Cl)nnc1SCC(=O)Nc1cc(F)ccc1C | 5.2%
CC(=O)Nc1ccc(S(=O)(=O)Nc2c(F)cccc2F)cc1 | i
O=C(CNS(=O)(=O)c1ccc(F)cc1)Nc1ccccc1 | i

Main list, previewed entries included:
SMILES | Mtb H37Rv
COc1ccc(NC(=O)C(C(C)C)N2C(=O)c3ccccc3C2=O)cc1Cl (stereo not drawn) | i
c1csc(-c2csc3ncnc(NC4CCCC4)c23)c1 | i
CCn1c(COc2ccccc2Cl)nnc1SCC(=O)Nc1cc(F)ccc1C | 5.2%
CC(=O)Nc1ccc(S(=O)(=O)Nc2c(F)cccc2F)cc1 | i
O=C(CNS(=O)(=O)c1ccc(F)cc1)Nc1ccccc1 | i
COc1cc(NC(=O)C(C)Oc2ccc(Cl)cc2C)c(C(=O)O)cc1OC (stereo not drawn) | i
Cc1ccccc1CN1CCCC(C(=O)N2CCCCCC2)C1 (stereo not drawn) | i
COc1ccc(C(=O)CCC(=O)Nc2nc(-c3ccc(F)cc3)c(C)s2)cc1 | i
N/C(=N/OC(=O)c1ccccc1F)c1ncon1 | i
Cc1ccc(NC(=O)CSc2nncn2C)c(C)c1 | i
COc1ccc(-c2cc(=O)c3cc(F)ccc3o2)cc1OC | 0.1%
COc1cccc2cc(C(=O)Nc3cc(C(F)(F)F)ccc3Cl)c(=O)oc12 | i
O=C(c1ccccc1)N1CCN(S(=O)(=O)c2cccs2)CC1 | i
COc1ccc(C(=O)Oc2ccc3oc(C)c(C(=O)OC(C)C)c3c2)cc1 | 34.6%
COC(=O)Cc1c(C)c2ccc(OCC(=O)c3ccc(Cl)c(Cl)c3)c(C)c2oc1=O | 4.6%
COc1ccc(CSc2nnc(SCC(=O)Nc3ccc(S(N)(=O)=O)cc3)s2)cc1 | 1.5%
CCN(CC)C(=O)CSc1nnc(NC(=O)c2ccc(Cl)cc2)s1 | i
CCCCOc1ccc(-c2nc(SCCC(=O)O)n[nH]2)cc1 | i
Cc1cc(Cl)ccc1OC(C)c1nnc(NC(=O)C2CCCCC2)s1 (stereo not drawn) | i
Cc1ccc(-c2cc(C(=O)Nc3ccncc3)c3ccccc3n2)cc1 | i
CN1CCN(C(=O)CN(C)S(=O)(=O)c2cc(Cl)ccc2Cl)CC1 | i
N#CC1=C(Nc2ccccc2)Oc2cc(N)ccc2C1c1cccnc1 (stereo not drawn) | i
CNc1ccc(Cl)cc1C(NC(N)=O)c1ccccc1 (stereo not drawn) | i
Cc1cccc(N2C(=S)N(c3ccccc3)C3CS(=O)(=O)CC32)c1C (stereo not drawn) | i
O=S(=O)(c1ccccc1)N1CCN(Cc2ccco2)CC1 | i

A different layout for part of the listing above.
| Molecule | Mtb H37Rv |
| --- | --- |
| COc1cc(NC(=O)C(C)Oc2ccc(Cl)cc2C)c(C(=O)O)cc1OC (stereo not drawn) | i |
| Cc1ccccc1CN1CCCC(C(=O)N2CCCCCC2)C1 (stereo not drawn) | i |
| COc1ccc(C(=O)CCC(=O)Nc2nc(-c3ccc(F)cc3)c(C)s2)cc1 | i |
| N/C(=N/OC(=O)c1ccccc1F)c1ncon1 | i |

The listing continues:
SMILES | Mtb H37Rv
COc1cccc(CN2CCN(C(=O)Nc3ccccc3C(F)(F)F)CC2)c1 | i
CCCS(=O)(=O)N1CCN(C(=O)COc2ccc(-c3ccccc3)cc2)CC1 | i
Cc1ccc(NS(=O)(=O)c2ccc(NS(=O)(=O)c3cccs3)cc2)cc1 | i
CC(C)C(=O)Nc1cccc(C(=O)NCc2ccccc2Cl)c1 | 5.0%
COc1ccc(-n2nc3ccc(NC(=O)c4sc5ccccc5c4Cl)cc3n2)cc1 | i
CCc1sc(C(=O)NC(C)C2CCCO2)cc1Br (stereo not drawn) | i
Cc1ccc(S(=O)(=O)N(CC(=O)NCc2ccncc2)Cc2cccc(C)c2)cc1 | i
CCn1c(SCC(=O)Nc2cc(C(F)(F)F)ccc2Cl)nnc1-c1ccc(OC)cc1 | i
Cc1ccc(O)c(NC(=O)Cc2ccc(Cl)cc2)c1 | i
O=C(CN1C(=O)c2ccccc2S1(=O)=O)Nc1cccc(C(F)(F)F)c1 | i
COc1ccccc1NC(=S)NCc1ccc(S(N)(=O)=O)cc1 | i
Cc1ccc(C(=O)Nc2ncccn2)cc1Cl | i
CCSc1nc2ccccc2n1C(CC(=O)O)C(=O)O (stereo not drawn) | 5.2%
CC1=C(C(=O)Nc2cccnc2)C(c2ccccc2C(F)(F)F)C2=C(CCCC2=O)N1 (stereo not drawn) | i
COc1ccccc1NC(=O)c1cnc(Nc2nc3ccccc3s2)nc1C | 1.5%
COc1ccc(OC)c(S(=O)(=O)N(C)CC(=O)N2CCCC2)c1 | i
Cc1ccc(N2NC3(CCCCC3)NC2=S)cc1C | i
COCC(=O)Nc1sc2c(c1C(N)=O)CCC(C)C2 (stereo not drawn) | i
Nc1ccc2oc(-c3cncc(Br)c3)nc2c1 | 26.5%
CCOc1ccccc1NC(=O)c1cccc(NC(=O)C(C)C)c1 | i
CCc1cccc(C)c1NC(=O)C1CCN(C(=O)c2ccc([N+](=O)[O-])cc2)CC1 | i
O=C(c1sc2cccc(Cl)c2c1Cl)N1CCN(c2cccc(Cl)c2)CC1 | i
COCc1[nH]nc2c1C(c1cccs1)C(C#N)=C(N)O2 (stereo not drawn) | i
COc1ccc(C)cc1NC(=S)NNC(=O)c1cc(-c2ccccn2)nc2ccccc12 | i
CC(=O)Nc1ccc(C2Nc3ccccc3NC3=C2C(=O)CC(c2ccc(C)cc2)C3)cc1 (stereo not drawn) | i

Next section
SMILES | Mtb H37Rv
COC(=O)c1cn(CC(=O)N2CCCc3ccccc32)c2ccccc12 | i
CCn1c(SCc2ccc(C(=O)Nc3cc(C)cc(C)c3)cc2)nnc1-c1ccncc1 | i
CCN(CC(N)=O)S(=O)(=O)c1ccc(C)cc1 | i
COc1cc(C)c(C)cc1S(=O)(=O)N1CCN(c2cc(Cl)ccc2C)CC1 | i
Cc1ccc(S(=O)(=O)N(CC(=O)N2CCC(C(N)=O)CC2)c2ccc(F)cc2)cc1 | i
Cn1c(SCC(=O)Nc2ccccc2)nc2sc3c(c2c1=O)CCC3 | i
COc1cc(C(=O)Oc2cc3oc(=O)c4c(c3cc2Cl)CCC4)cc(OC)c1OC | i
O=C(O)C1CCCN1S(=O)(=O)c1ccc(Cl)c(C(F)(F)F)c1 (stereo not drawn) | i
O=C(Nc1ccccc1C(F)(F)F)c1ccc(CSCc2ccccc2)cc1 | i
CCCN1CCN(CC(=O)NCC2COc3ccccc3O2)CC1 (stereo not drawn) | i
Cc1sc(NC(=O)C2C3C=CC(C3)C2C(=O)O)c(C(=O)OC(C)C)c1C (stereo not drawn) | i
Cc1ccc(OCCSc2nc3ccccc3s2)cc1 | i
CC(=O)Nc1ccc(Oc2nc(-c3ccccc3F)nc3ccccc23)cc1 | i
CCC(=O)N1N=C(c2cccs2)CC1c1ccc(OC)cc1 (stereo not drawn) | 2.6%
Fc1ccc(CN2CCN(Cc3ccccc3F)CC2)cc1 | i
COC(=O)c1sccc1NC(=O)Nc1ccccc1C(F)(F)F | i
C=CCn1c(SCC(=O)Nc2ccc(Br)c(C)c2C)nnc1-c1ccco1 | 0.0%
Cc1ccc(NC(=O)c2cc([N+](=O)[O-])ccc2NCc2ccco2)cc1 | i
COCCn1c(SCC(=O)NCc2ccc(OC)cc2)nnc1-c1ccccc1 | i
COc1ccc(CC(=O)N2CCCc3ccccc32)cc1 | 0.2%
CCS(=O)(=O)Nc1cc(OC)c(Cl)cc1OC | i
COc1cc(-c2nnc(SCc3ccc([N+](=O)[O-])cc3)n2-c2ccccc2)cc(OC)c1OC | i
COc1ccc(CCCc2nnc(SCCC(=O)Nc3ccccc3)n2C)cc1 | i
CCOC(=O)c1ccc(N(Cc2ccc(C)cc2)S(C)(=O)=O)cc1 | i
NC(=O)CSc1nnnn1-c1ccccc1 | 2.3%

(continued)
SMILES | Mtb H37Rv
COc1cccc(NC(=O)Nc2ccc(Br)cc2F)c1 | i
CCN(CC)c1ccc(-n2nc3cc(C)c(N)cc3n2)c(C)c1 | 13.1µg/mL*
Cc1cc(C)cc(CC(C(=O)Nc2ccccc2I)C(C)C(=O)O)c1 (stereo not drawn) | i
CCCc1ccc(OCC(O)CN2CCN(C(=O)OCC)CC2)cc1 (stereo not drawn) | i
COc1ccc(S(=O)(=O)Nc2ccc(F)cc2F)cc1 | 0.7%
CC(C)C(=O)Nc1cc(-c2nc3ncccc3o2)ccc1Cl | i
COC(=O)c1ccccc1NC(=O)c1ccoc1C | 2.5%
CC(=O)c1ccc(NC(=O)Nc2ccncc2)cc1 | i
CC(C)c1cccc(C(C)C)c1NC(=O)CCCc1ccccc1 | i
COc1ccc(Cl)cc1NC(=O)N1CCc2ccccc21 | i
Cc1ccc(OCC(=O)Nc2ccccc2N2CCOCC2)cc1 | 3.3%
COc1ccc(-c2cc(-c3ccccc3)c(C#N)c(S(=O)(=O)Cc3ccccc3)n2)cc1 | i
CCn1nccc1C(=O)Nc1ccc(Cl)cc1Cl | 2.2%
O=C(Nc1ccc(Cl)cc1C(=O)NCCN1CCOCC1)c1ccco1 | i
COc1cc(NS(=O)(=O)c2cccc([N+](=O)[O-])c2)c(OC)cc1NC(=O)c1ccccc1 | 1.0%
COc1ccc(S(=O)(=O)N(C)CC(=O)Nc2ccc(Cl)c(C(F)(F)F)c2)cc1OC | i
CSc1nc(-c2ccco2)cc(C(F)(F)F)c1C#N | i
COC(=O)c1c(NC(=S)Nc2ccc(OC(F)F)c(Cl)c2)sc2c1CCC(C)C2 (stereo not drawn) | i
COCCCNC(=S)NNC(=O)Cc1ccc(Br)cc1 | i
O=[N+]([O-])c1cccc(S(=O)(=O)NCCOc2cccc(Cl)c2Cl)c1 | 8.8%
Cc1ccc(-c2nn(CC(=O)Nc3ccc(C)cc3C)c(=O)c3ccccc23)cc1 | i
CCS(=O)(=O)N1CCC(C(=O)Nc2ccc(NC(=O)c3ccccc3)cc2)CC1 | i
CC(=O)c1ccc(N2CCN(C(=S)NC3CCCCC3)CC2)cc1 | 4.6%
CC(=O)NC(=S)Nc1cccc2ccccc12 | i
CCOc1cnn(-c2cccc(Cl)c2)c(=O)c1Cl | i

Continued.
SMILES | Mtb H37Rv
O=C(Nc1nnc(SCc2ccccc2Cl)s1)c1ccc(Cl)cc1Cl | i
Cc1ccc2nc(SCC(=O)Nc3ccc(O)c(C(=O)O)c3)[nH]c2c1 | i
COc1ccc(-c2cc(-c3ccc(Br)cc3)nc3ncnn23)cc1OC | 5.0%
COc1ccc(C(=O)NC(=S)Nc2ccc(S(=O)(=O)N(C)C)cc2)cc1Br | 3.1%
CCOc1ccc(N2C(=O)CN(CC(=O)OC)C2=S)cc1 | i
O=C(NC(Nc1ccc(F)cc1)C(Cl)(Cl)Cl)c1ccco1 (stereo not drawn) | 2.4%
CCOC(=O)c1c(NC(=S)NCc2ccco2)sc2c1CCCCCC2 | 3.9%
CC1(C)C(=O)C2(CCCCC2)C(=O)OC1c1ccc(O)cc1 (stereo not drawn) | i
CCOC(=O)c1sc(Nc2ccc(C)cc2C)nc1C | ?
COc1ccc(-c2noc(Cc3ccc(Cl)cc3)n2)cc1OC | 33.0%
Cc1cccc(NC(=O)C2(C)Cc3ccccc3C(=O)O2)c1 (stereo not drawn) | i
Cc1cc(C)cc(-c2nc(-c3ccccn3)no2)c1 | 2.0%
CCN(CC)CCNc1ncnc(N)c1[N+](=O)[O-] | i
OC(COc1ccc2c(c1)CCC2)CN1CCN(c2ccccc2F)CC1 (stereo not drawn) | i
CC(C)c1ccc(OCC(=O)Nc2ccc(S(=O)(=O)N3CCCC3)cc2)cc1 | i
O=C(c1ccco1)N1CCN(C2CC(=O)N(c3ccc(F)c(Cl)c3)C2=O)CC1 (stereo not drawn) | i
COC(=O)C1=CN(C(C)C)C=C(C(=O)OC)C1c1ccc(C(C)C)cc1 | i
Nc1cccc(-c2nnc(SCC(=O)Nc3cccc(Cl)c3)n2-c2ccccc2)c1 | i
CCC1(CC)C(=O)C(C)(C)C(=O)OC1c1ccccn1 (stereo not drawn) | 1.3%
Cc1cc(Br)ccc1OCc1nc(-c2ccc(Cl)cc2)no1 | 3.8%
Cc1cc(OCC(O)CN2CCN(c3ccccc3F)CC2)ccc1C(C)C (stereo not drawn) | 4.7%
O=C(Oc1ccccc1N1C(=O)CCC1=O)c1ccc(Cl)cc1Cl | 0.8%
COc1ccc(NC(=O)CCSc2ccc3ccccc3n2)cc1 | 18.8%
Cc1cc(NC(=O)c2sc3nc4c(c(-c5cccs5)c3c2N)CN(C)CC4)no1 | i
Cc1ccc(C(=O)N2CCN(c3ccc(NC(=O)c4ccccc4I)cc3)CC2)cc1 | i
Cc1cc2oc3c(c(=O)c2cc1C)C(c1cccc(OCc2ccccc2)c1)N(c1ccccn1)C3=O (stereo not drawn) | 2.6%
O=C(Nc1cccc(F)c1)OCc1ccccc1 | 2.0%
O=C(CN1CCCCCC1)Nc1c(Cl)cc(Cl)cc1Cl | i
COc1ccc(N2CCN(C(=O)COc3cc(C)cc(C)c3)CC2)cc1 | 3.9%
CCN(CC)C(=O)C(=O)Nc1cc(C(F)(F)F)ccc1Cl | i

Single values from the list.
Cc1cc(C)cc(-c2nc(-c3ccccn3)no2)c1 | Mtb H37Rv: 2.0%
O=C(NC(Nc1ccc(F)cc1)C(Cl)(Cl)Cl)c1ccco1 (stereo not drawn) | Mtb H37Rv: 2.4%
